Source: PubChem (National Center for Advancing Translational Sciences (NCATS))
RE007 growth inh = less growth of the S. pombe RE007 Vpr strain; S. pombe RE007 Vpr strain, BacTiter-Glo ATP luminescence, 24 h; control for the full effect not named in the record; Potency, µM (highest dose often 92.2 µM), inactives show top-dose activity change, negative = less growth; 360,000 tested, 0.21% active; AID 651644; active = well fitted falling curve with a large enough effect; inconclusive = small, poorly fitted or top-dose-only effect; inactive = no such curve, though single readings can be large or run the other way;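 also: % is scaled to controls: 0 for no effect and ±100 for the full control effect; nearly all actives have a fitted effect of over 50% in size; the assay follows cell death caused by Vpr and the record does not say whether a fall means rescue or toxicity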
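Fission yeast RE007 carrying one integrated HIV-1 vpr copy, seeded at OD 0.01 in PMG+AL medium with 23 nL pinned compound. Grown 24 h at 30 degrees; viability read by BacTiter-Glo luminescence after 5 min.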
Cruzain Triton = inhibitors of Trypanosoma cruzi cruzain with detergent. purified cruzain, Z-FR-AMC fluorescence, 0.01% Triton. Potency, µM, inactives show max response, negative = inhibition, actives largely listed as inhibitors. 200,000 tested, 0.43% active. P25779; active = well fitted curve in the direction sought with a large enough effect; inconclusive = small, poorly fitted or top-dose-only effect, or another doubt; inactive = no such curve, though single readings can be large; an effect the other way counts as inactive or inconclusive;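 also: plate controls were neutral wells for no effect and buffer without enzyme for full effect; nearly all actives have a fitted effect of over 40% in size; top concentration of the series not given in the record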
Target sequence (P25779 123-467 limits assumed): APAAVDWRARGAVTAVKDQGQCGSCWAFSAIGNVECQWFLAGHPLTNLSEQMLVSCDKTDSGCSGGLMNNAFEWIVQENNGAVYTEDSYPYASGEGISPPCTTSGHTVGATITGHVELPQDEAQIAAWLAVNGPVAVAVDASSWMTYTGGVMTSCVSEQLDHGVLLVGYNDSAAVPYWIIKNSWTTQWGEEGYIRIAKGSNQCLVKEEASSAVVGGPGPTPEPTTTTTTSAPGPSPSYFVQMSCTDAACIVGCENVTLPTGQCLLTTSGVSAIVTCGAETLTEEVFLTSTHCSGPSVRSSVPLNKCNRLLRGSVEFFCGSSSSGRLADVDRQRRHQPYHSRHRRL
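Detergent-containing arm of a paired screen for aggregation-based inhibition: 0.01% Triton X-100 present. Cruzain at 1.5 nM cleaved 2 uM Z-FR-AMC at pH 5.5 with 5 mM DTT; AMC fluorescence gain over 60 s measured activity.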
StopGo reporter = FMDV 2A StopGo reporter, luciferase signal. 410,000 tested, 1.2% active. Potency, µM (doses to about 57.9 µM), for the others: at the top dose signal change, negative = less light. human cells with a luciferase reporter of 2A StopGo recoding; control for the full effect not named in the record; active = well fitted falling curve with a large enough effect; inconclusive = small, poorly fitted or top-dose-only effect; inactive = no such curve, though single readings can be large or run the other way; tested in HEK293T cells; also: % is scaled to controls: 0 for no effect and ±100 for the full control effect; nearly all actives have a fitted effect of over 45% in size; luciferase light after 4 h
LASV entry inh = Lassa virus entry inhibition; Lassa virus pseudotype entry inhibition, cell reporter; control for the full effect not named in the record; Potency, µM (highest dose often 37.9 µM), for the others: at the highest dose activity change, negative = inhibition, most hits filed as inhibitors; 300,000 tested, 1.2% active; AID 540256; active means well fitted inhibition curve with a large enough effect; inconclusive means small, poorly fitted or top-dose-only effect, or effect the other way; inactive means flat fitted curve, though single readings scatter; tested in HEK293 cells; also: % is scaled to controls: 0 for no effect and ±100 for the full control effect; nearly all actives have a fitted effect of over 50% in size; luciferase read-out
SARS PLP yeast = inhibitors of SARS-CoV papain-like protease in yeast. AID 485353. 330,000 tested, 0.19% active. S. cerevisiae expressing SARS-CoV PLpro, growth rescue; control for the full effect not named in the record. Potency, µM (highest dose often 32.9 µM), inactives show top-dose activity, positive = growth rescue; also: 0% is about no effect; nearly all actives have a fitted effect of over 55% in size; growth read by luminescence after 48 h
Cruzain noTriton = cruzain (T. cruzi) inhibition without detergent | Potency, µM, for inactives: max response, negative = inhibition, actives largely listed as inhibitors | 200,000 tested, 2.3% active | purified cruzain, Z-FR-AMC fluorescence, no detergent | P25779; active = well fitted curve in the direction sought with a large enough effect; inconclusive = small, poorly fitted or top-dose-only effect, or another doubt; inactive = no such curve, though single readings can be large; an effect the other way counts as inactive or inconclusive;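 also: plate controls were enzyme without inhibitor for no effect and buffer without enzyme for full effect; nearly all actives have a fitted effect of over 40% in size; top concentration of the series not given in the record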
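Purified cruzain at 1.5 nM, pre-incubated 15 min with compound at room temperature in 100 mM sodium acetate pH 5.5, 5 mM DTT, 0.00005% Triton X-100. Reaction started with 2 uM Z-FR-AMC; AMC fluorescence increase over 60 s gives rate.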
MARV entry inh = inhibitors of Marburg virus binding or cell entry | 300,000 tested, 1.8% active | Potency, µM (titrated, usually from 37.8 µM), for inactives: at the top dose activity change, negative = inhibition, actives largely listed as inhibitors | Marburg virus pseudotyped entry inhibition, cell reporter; control for the full effect not named in the record; about a third of the inactives were read at about 46 µM; active = well fitted inhibition curve with a large enough effect; inconclusive = small, poorly fitted or top-dose-only effect, or effect the other way; inactive = flat fitted curve, though single readings scatter; tested in HEK293 cells; about a fifth of its hits are not listed in these tables; also: % is scaled to controls: 0 for no effect and ±100 for the full control effect; luciferase read-out
NS1 inh = blocks influenza NS1 protein function; S. cerevisiae slowed by influenza A NS1, growth recovery by OD600; Potency, µM (highest dose often 46.1 µM), without a hit: top-dose activity, positive = more growth; 270,000 tested, 0.4% active; AID 2326; also: actives are rising curves; nearly all actives have a fitted effect of over 50% in size
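OD600 was taken as the measure of yeast growth restored by compound in an NS1-expressing S. cerevisiae strain. Cells had been washed out of glucose medium and diluted 1:100 into galactose -URA medium, pH 6.0.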
An asterisk follows results filed as active; ? = inconclusive; nt = not tested or not shown; & = joins results of further samples; [ ] = another dose, or the depositor's remark. Unless noted, calls follow the shape of the dose curve; as a rule, active means well fitted rising curve with a large enough effect; inconclusive means small, poorly fitted or top-dose-only effect; inactive means no such curve, though single readings can be large or run the other way. Potency is read from the fitted curve at half-maximal effect.

SMILES	RE007 growth inh	Cruzain Triton	StopGo reporter	LASV entry inh	SARS PLP yeast	Cruzain noTriton	MARV entry inh	NS1 inh
CCCCOc1ccc(OCCNC(=O)c2ccco2)cc1	-13%	nt	14%	2%[46.1 µM]	-2%	nt	3%[46.1 µM]	-16%
CCC(=O)Nc1cccc(NC(=O)CSc2nnnn2C)c1	10%	-6.3%	15%	10%	5%	-1%	-5%	2%
Cc1onc(-c2ccccc2)c1NC(=O)N(CCC#N)Cc1ccccc1	-2%	nt	12%	10%	0%	nt	-16%[14.2 µM]	0%
COc1ccc(/C=C2\SC(=O)N(CCc3nnc(N)s3)C2=O)cc1	-9%	nt	-8%	nt	-1%	nt	nt	6%
Cn1c(=O)n(C)c2cc(NC(=O)CSc3nnc(-c4ccccc4O)n3-c3ccccc3)ccc21	18%	-7.0%	-26%	-24%	-8%	?	?	-69%
CC(=O)Nc1ccccc1C(=O)OCc1ccccc1F	4%	nt	-26%	-12%[46.1 µM]	2%	nt	12%[46.1 µM]	-7%
O=S(=O)(Nc1cccc(S(=O)(=O)N2CCCCCC2)c1)c1ccccc1	-5%	nt	23%	10%	0%	nt	-5%	-6%
O=C(NCC1OCCc2ccccc21)c1cc(COc2ccc(F)cc2Cl)on1 (stereo not drawn)	5%	nt	-2%	nt	-2%	nt	nt	-2%
O=C(Nc1ccccc1Cc1ccccc1)c1ccc2c(c1)SC1=NS(=O)(=O)CCN12	-8%	-4.0%	0%	5%	13%	-15%	?	5%
COc1ccc(N(CC(=O)Nc2ccc(C)c(F)c2)S(=O)(=O)c2c(C)noc2C)cc1	9%	nt	-9%	nt	-3%	nt	nt	-19%
CCOc1cc(C=O)ccc1OS(=O)(=O)c1ccc(NC(C)=O)cc1	-10%	-2.3%	-19%	0%	-2%	8%	2%	-17%
Cc1ccc(S(=O)(=O)N/N=C/c2c(C)nn(-c3ccccc3)c2C)cc1	5%	-2.5%	57%[activator]	12%	-15%	1%	0%[46.1 µM]	12%
Cc1ccc(Cl)cc1N1CCN(S(=O)(=O)c2c(C)[nH]c(=O)[nH]c2=O)CC1	5%	0.2%	-25%	-7%	1%	?	?	7%
CC(C)(C)C(=O)Nc1ccc(-c2nc3ccc(NC(=O)C(C)(C)C)cc3[nH]2)cc1	nt	-20%	25%	-23%[46.1 µM]	nt	-10%	nt	nt
COc1ccccc1NC(=O)NNC(=O)c1ccc2c(c1)NC(=O)C(C)(C)O2	5%	nt	-24%	-6%	-1%	nt	?	0%
Cc1ccc(S(=O)(=O)c2nc(-c3ccc(F)cc3)oc2N2CCN(c3ccccc3)CC2)cc1	nt	-0.3%	12%	-29%[46.1 µM]	nt	-22%	-3%[46.1 µM]	nt
O=C(COC(=O)/C=C/c1cccc(C(F)(F)F)c1)NC(=O)NCc1ccccc1	3%	nt	-20%	-1%	5%	nt	?	nt
N#CC(C#N)=Cc1cccn1-c1ccc(C(=O)O)cc1	5%	nt	-12%	9%	4%	nt	?	4%
COc1ccc(CNc2nc(-c3ccco3)nn2S(=O)(=O)c2ccc(Cl)cc2)cc1OC	nt	-5.3%	-3%	-17%[46.1 µM]	nt	28%	5%[46.1 µM]	nt
CCN(CCO)c1ncnc2onc(-c3ccc(F)cc3)c12	-3%	nt	-15%	nt	1%	nt	nt	3%
O=C(CSc1nnc(CNC(=O)C23CC4CC(CC(C4)C2)C3)n1-c1ccc(F)cc1)Nc1ccccc1	-14%	6.1%	?	?	-2%	?	?	-24%
C[C@]12CCC3C(CC[C@H]4CCCC[C@]34C)C1CC[C@@]2(O)CNCCO (stereo partly drawn)	11%	nt	-17%	?	-1%	nt	1%	-1%
N#C/C(=C(\O)c1ccco1)c1ccccn1	-13%	-4.9%	33%[activator]	-5%	0%	-2%	23%	-18%
O=C(CSc1ccccc1C(=O)O)NCC1CCCCC1	-10%	nt	21%	-1%	0%	nt	8%	nt
CC1CCCCC1NC(=O)CSc1nc2ccccc2[nH]1 (stereo not drawn)	10%	nt	?	1%	-2%	nt	2%[46.1 µM]	16%
Cc1ccc(C(=O)/C=C2\NCC(C)NC2=O)cc1 (stereo not drawn)	-15%	-1.9%	-72%	8.9µM*	-7%	-3%	5.6µM*	-19%
Brc1ccccc1Cn1c(-c2cscn2)nc2ccccc21	12%	-5.9%	?	-6%	?	4%	-6%	0%
Cc1ccc(S(=O)(=O)CC(=O)c2cc(C)c(O)c(C)c2)cc1	3%	nt	3%	-15%[46.1 µM]	5%	nt	-2%[46.1 µM]	nt
O=S1CCCSC1c1cccnc1 (stereo not drawn)	2%	4.8%	3%	-15%[14.3 µM]	7%	-4%	-8%	3%
COc1ccc(NC(=O)c2cccc3c2C(=O)N(C2CCCCC2)C3)cc1	-3%	nt	1%	nt	2%	nt	nt	12%
CC(=O)Nc1cc2nn(-c3ccccc3)nc2cc1Cl	6%	-5.1%	35%[activator]	?	-2%	16%	2%[46.1 µM]	6%
COc1ccc(NC2CCCN(C(=O)CCN3CCCO3)C2)cc1 (stereo not drawn)	0%	nt	6%	21%[46.1 µM]	-17%	nt	?	7%
Cc1ccc(NC(=O)CN2C(=O)COc3ccc(S(=O)(=O)N4CCOCC4)cc32)cc1F	-4%	nt	5%	nt	0%	nt	nt	-7%
CC[C@H](C)NC(=O)CCCCCn1c(=S)[nH]c2c([nH]c3ccc(OC)cc32)c1=O	15%	nt	1%	1%[46.1 µM]	10%	nt	13%[46.1 µM]	nt
CCCCC(=O)N=c1sc2c(OC)ccc(OC)c2n1C	-17%	nt	-7%	nt	1%	nt	nt	-6%
COc1cccc(CN2C(=O)c3ccccc3Sc3ccc(C(=O)NCCc4ccc(C)cc4)cc32)c1	nt	-2.6%	-22%	-29%[46.1 µM]	nt	?	?	nt
O=C(/C=C/c1ccc(Br)o1)Nc1nccs1	2%	nt	59%[activator]	2%	0%	nt	?	nt
Cc1cc(C)c2c(N)c(C(=O)NN3CC(=O)N(c4cccc(Cl)c4)CC3=O)sc2n1	-3%	nt	-2%	-6%	-4%	nt	-7%	7%
O=c1oc2ccccc2c(N2CCN(c3ccccc3F)CC2)c1CN1CCCC1	nt	-1.7%	-3%	?	nt	-13%	?	nt
O=C(CCCOc1ccc(Cl)cc1)Nc1cccc(C(=O)O)c1	-16%	nt	-14%	2%	1%	nt	-2%	8%
CCOC(=O)c1sc2nccc(N(C)C)c2c1N=CNOCc1ccccc1	8%	-8.7%	-14%	?	-14%	?	-16%	-2%
Cc1ccc2c(=O)c(C(=O)c3ccccc3)cn(CC(=O)Nc3ccc4c(c3)OCCO4)c2n1	nt	-2.5%	-13%	-8%[46.1 µM]	nt	-4%	nt	nt
Cc1ccc(N(CN2C(=O)c3ccccc3C2=O)C(=O)c2ccc([N+](=O)[O-])cc2[N+](=O)[O-])cc1	-6%	-7.0%	-17%	6%	-20%	-2%	-7%	20%
COc1ccc(/C(N)=N/OC(=O)c2cccc([N+](=O)[O-])c2C)cc1	-8%	nt	4%	10%	0%	nt	24%	-5%
CSc1cccc(CNC(=O)C2CCC(=O)N(CCCN3CCCC3=O)C2)c1 (stereo not drawn)	3%	nt	13%	8%	1%	nt	20%	-9%
CN(C)S(=O)(=O)c1ccc(Cl)c(C(=O)NNC(=O)Cn2ccc(C(F)(F)F)n2)c1	3%	nt	-15%	6%	1%	nt	-18%	nt
COc1cccc(CNC(=O)c2ccc(NC(=O)CC3SC(N4CCCC4)=NC3=O)cc2)c1 (stereo not drawn)	-8%	nt	5%	-2%	-4%	nt	?	nt
C[C@H](NC(=O)/C(C#N)=C/c1ccc(O)c(O)c1)c1ccccc1	nt	-5.4%&0.0%	54%[activator]	?	nt	5%&-3%	?	9%
O=C(N/N=C/c1cccs1)c1ccc2ccccc2c1	16%	nt	89%[activator]	-27%	-8%	nt	?	-44%
CCCOc1ccc(C(=O)N2CCC(c3nc4ccccc4s3)CC2)cc1	nt	-10.0%	-9%	18%[46.1 µM]	nt	-1%	?	nt
CC(=O)c1nn(-c2ccc(Br)cc2)cc1C(=O)c1ccco1	-9%	-2.4%	-11%	-9%	-5%	-3%	12%	3%
CCc1c(C(=O)Nc2ccc(C)c(C)c2)[nH]c(C)c1C(C)=O	4%	nt	58%[activator]	-4%[46.1 µM]	-7%	nt	?	-5%
CSc1nnc(NC(=O)C2CCCCC2)s1	-9%	0.4%	43%[activator]	nt	0%	-25%	nt	8%
CC(OC(=O)c1ccc(S(=O)(=O)NCc2ccco2)cc1)C(=O)Nc1ccc(Cl)cn1 (stereo not drawn)	0%	-7.5%	-17%	-3%	9%	-7%	?	3%
Cn1nc(CC(=O)Nc2ccc3c(c2)CCC3)c2ccccc2c1=O	16%	0.7%	?	-14%	-2%	-2%	?	-19%
CCN(Cc1ccccc1)C(=O)CN1C(=O)COc2ccc(S(=O)(=O)N3CCCCCC3)cc21	-4%	-4.2%	-11%&-15%	-21%&-6%[46.1 µM]	6%	26%	-23%&-23%[46.1 µM]	6%
O=c1ccc(-c2ccc(S(=O)(=O)Nc3ccccc3Cl)o2)n[nH]1	0%	nt	4%	nt	-1%	nt	nt	-6%
O=C(c1ccc2c(c1)N(Cc1ccc(F)cc1)C(=O)c1ccccc1S2=O)N1CCC(Cc2ccccc2)CC1 (stereo not drawn)	nt	-1.2%	-13%	?	nt	-21%	?	nt
Cc1ccc(NC(=O)CN(C)C(=O)CN2C(=O)NC(C)(c3ccccc3)C2=O)cc1 (stereo not drawn)	-14%	5.2%	-15%	18%	-5%	0%	10%	-1%
CCOC(=O)CCNC(=O)c1ccccc1Br	15%	0.2%	0%	3%	2%	0%	-7%[46.1 µM]	3%
COC(=O)Cc1c(C)nc2nc(-c3ccccc3)[nH]n2c1=O	1%	1.7%	20%	6%	2%	-6%	17%	7%
O=S(=O)(Cc1ccccc1Cl)CC(O)COc1ccccc1Cl (stereo not drawn)	-8%	3.3%	12%	-3%	-3%	-6%	13%	-94%
